FXIa single inh = blocks human coagulation factor XIa activity. P03951. purified human FXIa, fluorogenic AMC substrate cleavage. inhibition, % at 10 µM. 33,000 compounds, 0.3% hits. AID 687;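 active = inhibition above 40% in the primary screen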;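 note: 0% = enzyme without compound and 100% = blank wells lacking enzyme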
Target sequence (P03951 19-387 limits assumed): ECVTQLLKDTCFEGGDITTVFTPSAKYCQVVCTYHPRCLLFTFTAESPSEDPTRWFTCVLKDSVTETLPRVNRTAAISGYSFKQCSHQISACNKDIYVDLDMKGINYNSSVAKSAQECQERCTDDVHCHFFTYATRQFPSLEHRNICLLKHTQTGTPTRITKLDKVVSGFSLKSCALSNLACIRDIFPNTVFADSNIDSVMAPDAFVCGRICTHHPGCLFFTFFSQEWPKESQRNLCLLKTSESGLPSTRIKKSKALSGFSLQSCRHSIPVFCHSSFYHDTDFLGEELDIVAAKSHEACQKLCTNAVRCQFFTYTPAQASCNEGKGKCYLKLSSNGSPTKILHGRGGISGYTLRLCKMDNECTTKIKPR
Target sequence (P03951 388-625 limits assumed): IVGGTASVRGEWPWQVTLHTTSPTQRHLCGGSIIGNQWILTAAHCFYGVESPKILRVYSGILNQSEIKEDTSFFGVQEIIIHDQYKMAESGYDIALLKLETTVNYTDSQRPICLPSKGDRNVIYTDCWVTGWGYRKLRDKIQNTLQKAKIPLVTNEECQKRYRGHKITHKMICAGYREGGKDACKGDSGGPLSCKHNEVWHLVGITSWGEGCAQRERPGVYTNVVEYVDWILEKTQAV
Numbers without * were called inactive.

No.	FXIa single inh	structure
1	-6	COc1ccc(N2CCN(C(CNC(=O)c3cccc(Cl)c3)c3cccnc3)CC2)cc1 (centres undefined)
2	4	CCCC(=O)n1nc(-c2ccco2)nc1N
3	-5	COC(=O)Cc1ccc(NC(=O)c2ccc(Br)o2)cc1
4	2	CCN(CC)S(=O)(=O)c1cccc(C(=O)NCCCN2CCOCC2)c1
5	-1	Nc1nncn1C(=O)c1c(Cl)cccc1Cl
6	1	CCn1c(SCC(=O)c2ccc(Br)cc2)nnc1C(C)NC(=O)Cc1ccc(OC)cc1 (centres undefined)
7	6	COC(=O)c1cc2nc(-c3ccccc3)cc(C(F)(F)F)n2n1
8	1	Cc1cc(C)n(C(=O)c2ccc(S(=O)(=O)N3CCCC3)cc2)n1

The list goes on, starting with the last 2 of the part before.
No.	FXIa single inh	structure
7	6	COC(=O)c1cc2nc(-c3ccccc3)cc(C(F)(F)F)n2n1
8	1	Cc1cc(C)n(C(=O)c2ccc(S(=O)(=O)N3CCCC3)cc2)n1
9	-2	C=CCn1c(SCC(=O)Nc2c(C)nn(Cc3ccccc3)c2C)nnc1C(O)c1ccccc1 (centres undefined)
10	30	Cc1ccc(C(=O)n2nc(-c3ccco3)nc2N)cc1
11	8	Cc1ccc(S(=O)(=O)NCC(=O)OCC(=O)c2cccs2)cc1
12	0	CCCCOC(=O)c1cccc(NC(=O)CC)c1
13	4	Nc1nc(-c2cccnc2)nn1C(=O)c1ccco1
14	0	Cc1occc1C(=O)n1nnc2ccccc21
15	5	Cc1cccc(N2CCN(C(=O)CN3CCOc4ccccc43)CC2C)c1 (centres undefined)
16	5	COc1ccccc1C(=O)n1nc(-c2ccc(Cl)cc2)nc1N

In the list so far, these have an aryl methoxy group:
No.	FXIa single inh	structure
1	-6	COc1ccc(N2CCN(C(CNC(=O)c3cccc(Cl)c3)c3cccnc3)CC2)cc1 (centres undefined)
6	1	CCn1c(SCC(=O)c2ccc(Br)cc2)nnc1C(C)NC(=O)Cc1ccc(OC)cc1 (centres undefined)
16	5	COc1ccccc1C(=O)n1nc(-c2ccc(Cl)cc2)nc1N

Next compounds follow.
No.	FXIa single inh	structure
17	0	CC1=C(C(=O)OCc2ccccc2)C(c2cccnc2)n2nnnc2N1 (centres undefined)
18	2	CN(C)CCCNC(=O)c1ccccn1
19	-13	C=CCn1c(SCC(=O)c2ccc(Br)cc2)nnc1C(C)NC(=O)Cc1ccc(OC)cc1 (centres undefined)
20	-2	O=C(NCCc1ccccc1)c1nc2nc(-c3cccs3)cc(C(F)(F)F)n2n1
21	6	COc1ccccc1C(=O)n1nc(-c2ccco2)nc1N

Some of these compounds in order of their number in FXIa single inh, descending.
No.	FXIa single inh	structure
18	2	CN(C)CCCNC(=O)c1ccccn1
17	0	CC1=C(C(=O)OCc2ccccc2)C(c2cccnc2)n2nnnc2N1 (centres undefined)
20	-2	O=C(NCCc1ccccc1)c1nc2nc(-c3cccs3)cc(C(F)(F)F)n2n1

Single entries from the list.
no. 20 – FXIa single inh = -2
no. 18 – FXIa single inh = 2

Assay outcomes (PubChem BioAssay)

A portion of the library; most or all hits stand in other tables.
